Screens deposited in PubChem BioAssay by Emory University Molecular Libraries Screening Center.
Measles inh: inhibitors of measles virus growth in infected cells; z-score (no concentration beside the values); infected Vero cells, GFP fluorescence, 64 h; hits give low values; actives 0.1% (n = 33,000);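 active means z-score under -3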;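 further: score is relative to mean and SD of the compound wells of a plate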
Numbers without * were called inactive. An excerpt (hit frequency here may not be typical).

SMILES	Measles inh
CCCn1c(=S)[nH]c2cc(C(=O)N3CCN(c4ccccn4)CC3)ccc2c1=O	-0.02
CCOC(=O)CSc1ccc(S(=O)(=O)N2CCCC2)cc1[N+](=O)[O-]	0.34
COc1ccc(-c2cc(C(F)(F)F)n3nc(C(=O)Nc4ccc(C)c(C)c4)cc3n2)cc1	-1.2
COC(=O)c1ccc(NC(=O)NS(=O)(=O)c2ccc(C)cc2)cc1	0.14
COC(=O)c1ccc(OC(=O)CN2C(=O)c3cccc([N+](=O)[O-])c3C2=O)cc1	-0.35
COC(=O)c1ccc(C2C3=C(CC(c4ccc(C)cc4)CC3=O)Nc3ccccc3N2C(=O)CCC(=O)O)cc1 (centres undefined)	-0.29
N#CCSc1nc2ccc(N3CCOCC3)cc2c(=O)n1Cc1ccccc1	-0.04
O=C(CN1C(=O)c2ccccc2C1=O)Nc1ccc(O)cc1	1.7
O=C(O)C1CSC(c2ccc3c(c2)OCO3)N1 (centres undefined)	0.92
CCCCOC(=O)c1c(C)oc2c1cc(NS(=O)(=O)c1ccc(F)cc1)c1ccccc12	0.51
CCN1CCCC1CNC(=O)c1sc2ncnc(N(C)c3ccccc3)c2c1C (centres undefined)	0.65
O=c1c2ccccc2nc(SCc2cc(=O)n3ccccc3n2)n1Cc1cccs1	-0.16
COc1ccc2cc3cc(C(=O)N4CCN(c5ccccn5)CC4)oc3nc2c1	-0.54
COc1ccc(C(=O)CC2(O)C(=O)Nc3ccc(Cl)cc32)cc1[N+](=O)[O-] (centres undefined)	-0.58
CCCn1c2ccccc2c2nnc(SCC(=O)NCc3ccco3)nc21	0.55

Random excerpt: 5 records from the list
SMILES	Measles inh
CCCn1c(=S)[nH]c2cc(C(=O)N3CCN(c4ccccn4)CC3)ccc2c1=O	-0.02
O=c1c2ccccc2nc(SCc2cc(=O)n3ccccc3n2)n1Cc1cccs1	-0.16
CCCCOC(=O)c1c(C)oc2c1cc(NS(=O)(=O)c1ccc(F)cc1)c1ccccc12	0.51
COC(=O)c1ccc(OC(=O)CN2C(=O)c3cccc([N+](=O)[O-])c3C2=O)cc1	-0.35
COC(=O)c1ccc(NC(=O)NS(=O)(=O)c2ccc(C)cc2)cc1	0.14

Additional structures
SMILES	Measles inh
CC1=C(C(=O)OCC2CCCO2)C(c2coc3ccccc3c2=O)C2=C(CC(C)(C)CC2=O)N1 (centres undefined)	1.9
COc1cccc(C2Nc3ccccc3NC3=C2C(=O)CC(c2cccs2)C3)c1OC (centres undefined)	0.21
CSc1nc(OCC(=O)c2ccccc2)c2c3c(sc2n1)CC(C)CC3 (centres undefined)	0.22
O=C(NCc1ccco1)c1ccc2c(=O)n(CCC3=CCCCC3)c(=S)[nH]c2c1	-1.1
COc1cc([N+](=O)[O-])ccc1NC(=O)c1ccncc1	-0.6
COc1ccc(C2Nc3ccc4ncccc4c3C3=C2C(=O)CC(c2ccccc2)C3)c(OC)c1 (centres undefined)	-0.69
O=C1c2ccc([N+](=O)[O-])cc2S(=O)(=O)N1c1ccccc1	0.85
O=C(NC1CCCCCCC1)c1ccc2c(c1)N(Cc1ccc(F)cc1)C(=O)CS2	0.63
COc1ccc(-n2c(=S)[nH]c3cc(C(=O)O)ccc3c2=O)cc1	0.66
COc1ccc(N2CCN(C(=O)c3ccc(S(=O)(=O)c4ccc(C)cc4)c(NC(C)=O)c3)CC2)cc1	1.5
CCN(CC)S(=O)(=O)c1ccc(F)c(C(=O)NCc2cccs2)c1	-0.08
Cc1nc2sc(C(=O)Nc3nc4ccccc4s3)c(N)c2c(C)c1C	-0.86
CCc1sc(NC(=O)c2c(-c3ccccc3)noc2C)nc1-c1ccccc1	-0.5
CCCCCCNC(=O)c1cnn2c(C)c(Cc3ccccc3Cl)c(C)nc12	-0.04
O=C1CN2C(=Nc3ccc(Br)cc3C2c2ccccc2)CN1 (centres undefined)	-0.16

Further compounds:
SMILES	Measles inh
c1ccc(-c2nc3ccccn3c2Nc2ccc3c(c2)OCCO3)nc1	-0.32
COc1ccc(C=Nc2ccco2)cc1	-0.02
CCOc1cc(C2C3=C(CCCC3=O)Nc3nc(C(=O)OC)nn32)ccc1OC (centres undefined)	-0.32
C[n+]1ccccc1C=Cc1ccccc1	0.41
CCOC(=O)C(C)Sc1nc(-c2ccccc2)cc(-c2ccc(OC)cc2)c1C#N (centres undefined)	-0.24
O=C1c2ccccc2C(=O)N1C1C(=O)N(c2cccc(C(F)(F)F)c2)C1c1ccc(F)cc1 (centres undefined)	-0.87
COC(=O)c1cccc(C(=O)Oc2cccc(Br)c2)n1	0.08
O=C(NC1C2CC3CC(C2)CC1C3)c1ccccc1Cl (centres undefined)	-0.02
COc1ccc(C2N(C(C)=O)CCN2S(=O)(=O)c2ccc(C)cc2)cc1 (centres undefined)	-0.17
CCOc1ccc(C2NC(=S)NC(C)=C2C(=O)Nc2ccc(F)cc2)cc1 (centres undefined)	1.2
CSc1nc2c(c(=O)n1CC1CCCC1)C1(CCCC1)Cc1ccccc1-2	-1.4
CC(=O)Oc1ccc2nc(-c3ccco3)oc(=O)c2c1	-0.82
Cc1ccc(C(=O)c2ccc(Oc3ccccc3)cc2)cc1	-0.24
O=C(c1ccc2c(=O)n(CCc3ccccc3)c(=S)[nH]c2c1)N1CCc2ccccc2C1	0.24
Cc1c(Br)c(C(F)(F)F)nn1CC(=O)N1CCCCC1	-0.56

Other records follow.
SMILES	Measles inh
CSc1ccccc1NC(=O)CCN1C(=O)C2C3C=CC(C3)C2C1=O (centres undefined)	-0.28
O=C(C1CCC1)N1CCc2cc(S(=O)(=O)NC3CCCC3)ccc21	0.31
Cc1ccc(NC2=NC3(CCCCC3)N=C(N)N2)c(C)c1	0.18
O=C(CCN1CCN(c2ccccc2)CC1)Nc1ccc(OC(F)(F)Cl)cc1	-0.03
C=CCc1cccc2cc(C(=O)OCC(=O)c3ccccc3)c(=O)oc12	0.31
O=C(NCc1ccc2c(c1)OCO2)C1CCC(Cn2c(=O)[nH]c3ccsc3c2=O)CC1 (centres undefined)	1.6
CCOc1ccccc1NC(=O)c1cc(S(=O)(=O)NC2CCCCC2C)ccc1F (centres undefined)	0.38
COc1cccc2c1OC(c1ccccc1)C([N+](=O)[O-])=C2 (centres undefined)	-1.3
Cc1ccc[n+](C(C)C(=O)c2ccccc2)c1 (centres undefined)	0.7
COc1ccc(NCC(O)Cn2c3ccccc3c3ccccc32)c(OC)c1 (centres undefined)	-0.8
O=C1CCC(C(=O)NCO)N1 (centres undefined)	-0.53
CN(CCc1ccccn1)C(=O)c1cc2c(=O)oc3ccccc3c2s1	1.4
CCCOc1ccc(C2C(C(=O)OCc3ccccc3)=C(C)NC3=C2C(=O)CC(C)(C)C3)cc1 (centres undefined)	-0.34
COc1cc2c(cc1NC(=O)COc1ccccc1F)oc1ccccc12	-0.72
Cc1ccc(CCNC(=O)C2CCN(S(=O)(=O)c3c(C)noc3C)CC2)cc1	0.08

Following part:
SMILES	Measles inh
COc1ccc(C2SCC(C(=O)O)N2C(C)=O)cc1 (centres undefined)	-0.03
O=C(CN(c1cc(C(F)(F)F)ccc1Cl)S(=O)(=O)c1ccccc1)N1CCN(c2ccccc2)CC1	-0.99
Cc1onc(-c2ccccc2Cl)c1C(=O)Oc1cc(N)n(S(=O)(=O)c2ccc(F)cc2)n1	0.52
CCN(CC)S(=O)(=O)c1ccc(C(=O)N2CC(=O)Nc3ccc(Cl)cc3C2c2ccc(F)cc2)cc1 (centres undefined)	-0.29
COC(=O)c1c(N2C(=O)C3ON(c4ccccc4)C(c4cccs4)C3C2=O)sc2c1CCCC2 (centres undefined)	-0.24
O=C1c2oc3ccccc3c(=O)c2C(c2ccc(Br)cc2)N1c1nccs1 (centres undefined)	-0.96
O=C(Nc1ccccc1)Nc1nc(=O)c2ccccc2s1	1.4
C=CCC1(NCc2ccco2)CCN(C)CC1	-0.62
COc1ccc(C2(CNC(=O)Cc3ccc(OC)c(OC)c3)CCOCC2)cc1	-0.06
CC1C(=O)C(C)C(c2cc(Cl)ccc2O)NC1c1cc(Cl)ccc1O (centres undefined)	-1.3
CCOC(=O)c1ccc(-n2c(N)c(C(=O)N3CCc4ccccc4C3)sc2=S)cc1	1.1
COc1ccc(OC)c(Nc2ncnc3ccc(Br)cc23)c1	-0.07
Cc1cccc(NC(=O)Cn2cnc3ccc(S(=O)(=O)N4CCC(C)CC4)cc3c2=O)n1	1.9
C=CCNc1nc2ccccc2nc1NS(=O)(=O)c1ccc(Cl)cc1	-0.43
Cc1cccc(-n2nc3c(c2NC(=O)c2ccc(C(C)(C)C)cc2)CS(=O)(=O)C3)c1C	1.5

Nothing new here: entries from further up.
SMILES	Measles inh
CCOC(=O)c1ccc(-n2c(N)c(C(=O)N3CCc4ccccc4C3)sc2=S)cc1	1.1
COc1ccc(OC)c(Nc2ncnc3ccc(Br)cc23)c1	-0.07
Cc1cccc(NC(=O)Cn2cnc3ccc(S(=O)(=O)N4CCC(C)CC4)cc3c2=O)n1	1.9
C=CCNc1nc2ccccc2nc1NS(=O)(=O)c1ccc(Cl)cc1	-0.43
Cc1cccc(-n2nc3c(c2NC(=O)c2ccc(C(C)(C)C)cc2)CS(=O)(=O)C3)c1C	1.5

Other entries:
SMILES	Measles inh
COc1cccc2c1OC1(C)CC2NC(=O)N1c1ccc(C)c(F)c1 (centres undefined)	-0.92
O=C(Nc1cccc2c1C(=O)c1ccccc1C2=O)c1ccc(-c2ccccc2)cc1	-0.46
C=C(C)c1cccc(C(C)(C)NC(=O)NCCc2ccccc2)c1	-0.85
CCCCN(CCCC)C(=O)NC1(C)CCS(=O)(=O)C1 (centres undefined)	-1.6
CN(C)c1ccc(C2SCCN2C(=O)c2cc3ccccc3oc2=O)cc1 (centres undefined)	2.6
COc1ccc(-n2nc3c(c2NC(=O)c2ccc(C(C)(C)C)cc2)CS(=O)(=O)C3)cc1	0.58
Cc1nc2ccc(S(=O)(=O)NCc3ccc4c(c3)OCO4)cc2s1	0.09
Cc1ccc(-c2nc3cccc(C)n3c2Nc2ccc(C(C)C)cc2)o1	0.77
CCOc1cc(C2/C(=C(\O)c3ccccc3)C(=O)C(=O)N2c2ccc(C)c(Br)c2)ccc1O (centres undefined)	0.32
CC(C)Cc1ccc(-c2csc(NC(=O)C3C4CCC(C4)C3C(=O)O)n2)cc1 (centres undefined)	-0.16
CC(=O)Oc1ccc(C2C(C(=O)OCC3CCCO3)=C(C)NC3=C2C(=O)CC(c2cccs2)C3)cc1 (centres undefined)	-0.71
C=CCNc1nc2c(c(=O)[nH]c(=O)n2C)n1Cc1ccc(F)cc1	1.4
O=C(O)c1ccc(-c2nc(-c3ccccc3)c(-c3ccc(Cl)cc3)[nH]2)cc1	1.2
O=C1C2C3c4ccccc4C(c4ccccc43)C2C(=O)N1c1ccc(S(=O)(=O)Nc2nccs2)cc1 (centres undefined)	-0.99
O=c1oc2ccccc2c2c1nnn2CCCN1CCOCC1	0.93

Additional entries follow:
SMILES	Measles inh
O=C(COc1cccc(Br)c1)Nc1nc2ccccc2s1	-1.1
COC(=O)c1sc2ccccc2c1NC(=O)c1ccc(OC)cc1OC	1.8
Cc1c(Cl)cccc1NC1=NS(=O)(=O)c2ccccc21	-0.53
CCCN(CCC)CC(O)CN1C(=O)NC(C)(C)C1=O (centres undefined)	0.52
N#CCc1nc(-c2cc3cc(Br)ccc3oc2=O)cs1	-0.67
Cc1ccc(NC(=O)c2ccc(Br)o2)c([N+](=O)[O-])c1	-0.81
O=C(Nc1nnc(N=Cc2ccc([N+](=O)[O-])s2)s1)c1cccc(Cl)c1	-1.3
Cc1sc2ncn(CC(=O)Nc3ccccc3C(F)(F)F)c(=O)c2c1C	0.61
COc1ccccc1-c1nc2nc(C)cc(=O)n2[nH]1	-0.19
CCc1ccccc1Nc1cc(C(=O)NCCOC)c2ccccc2n1	-0.4
Cc1cc(Cl)ccc1OCCCC(=O)N1CCN(Cc2ccc3c(c2)OCO3)CC1	-0.71
Cc1cc(C)cc(NC(=O)CCCn2c(=S)[nH]c3ccccc3c2=O)c1	-2
CCc1ccc(C2=CC(c3ccccc3F)n3ncnc3N2)cc1 (centres undefined)	-0.6
COC(=O)C1=C(N)OC2=C(C(=O)CC(C)(C)C2)C1c1cc(OC)ccc1OC (centres undefined)	-0.85
Cc1[nH]c2ccccc2c(=O)c1CN1CCCC1	0.32

(next part)
SMILES	Measles inh
Cc1ccc(S(=O)(=O)Nc2c(C)n(C)n(-c3ccccc3)c2=O)cc1	1.4
CCOc1ccc(NC(=O)Cn2c(=O)n(Cc3ccc4c(c3)OCO4)c(=O)c3ccccc32)cc1	0.78
O=C(c1ccc2c(=O)n(-c3cccc(C(F)(F)F)c3)c(=S)[nH]c2c1)N1CCc2ccccc2C1	0.06
CCCCOC(=O)c1c(C)oc2ccc(NS(=O)(=O)c3ccc(C(C)(C)C)cc3)cc12	-1
O=C(c1ccc(SCc2cccnc2)c([N+](=O)[O-])c1)N1CCc2ccccc2C1	-0.03
CCOc1ccc2c(c1)sc(=NC(=O)c1ccc(S(=O)(=O)N3CC(C)CC(C)C3)cc1)n2C (centres undefined)	0.53
CC(=O)c1ccc2c(c1)C1C=CCC1C(c1ccc(Br)cc1)N2 (centres undefined)	0.52
COc1ccc(-c2c(C#N)c(N)n3c(nc4ccccc43)c2C#N)c(OC)c1	-0.56
CCC(C)(C(=O)NC1CCCCC1)N(Cc1cccs1)C(=O)c1ccc2c(c1)OCO2 (centres undefined)	0.32
COC(=O)c1cc(N)c(Cl)s1	0.31
CCOc1ccc(C2Nc3ccccc3NC3=C2C(=O)CC(c2ccccc2)C3)cc1 (centres undefined)	-0.76
O=C(CCn1c(=S)[nH]c2ccccc2c1=O)NCCCN1CCOCC1	-0.38
